# Compound activity as filed in PubChem BioAssay.
# Hedgehog: Drosophila hedgehog isoform A inhibitors, primary screen, biochemical, plate reader, single concentration (AID 588832). Biochemical plate reader assay, Hedgehog inhibition; active compounds read high. 8,000 tested, under 10 active. inhibition, % at 30.3 µM; in the data active = inhibition from about 57%;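 also: 0% = neutral control wells and 100% = positive control wells; cholesterol-driven self-cleavage of fly hedgehog protein by fluorescence polarization; read one hour after cholesterol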
# Numbers without * were called inactive. Not all compounds are listed; rates above refer to the full screens.
Hedgehog	smiles
5	CCN1CCN(C(c2cccs2)C(C)NC(=O)c2cccc(OC)c2)CC1 (centres undefined)
8	CCCCNC(=O)CS(=O)Cc1nc(-c2ccc(C)cc2)oc1C (centres undefined)
11	CC(NS(=O)(=O)c1ccc(Br)cc1)C(c1cccs1)N1CCN(C)CC1 (centres undefined)
2	O=C(COc1ccc2c3c(c(=O)oc2c1)CCCC3)NC(Cc1ccc(Cl)cc1)C(=O)O (centres undefined)
5	Cc1ccc(N2CCN(S(=O)(=O)c3nnc(NC(=O)c4ccco4)s3)CC2)cc1
7	O=C(Cn1ncc2c1-c1ccccc1OC2)N1CCN(c2ccccn2)CC1
3	Cc1cccn2cc(CNS(=O)(=O)c3cccc(F)c3)nc12
-4	O=C(O)c1ccc(-n2nnnc2SCc2ccccc2F)cc1
6	COc1cc(C(c2sc3nc(C)nn3c2O)N2CC(C)OC(C)C2)cc(OC)c1OC (centres undefined)
5	Cc1c(C)c2ccc(OCC(=O)N3CCC(C(=O)O)CC3)c(C)c2oc1=O
0	Cc1ccccc1NC(=O)C1CCCN(c2nnc(N3CCCC3=O)s2)C1 (centres undefined)
5	COc1cccc2c(=O)n(CC(=O)N3CCCCCC3)ccc12
-3	CC1Cc2nc(SCC(=O)N3CCN(c4ccccc4)CC3)n(C)c(=O)c2S1 (centres undefined)
5	Cc1ccc2c(c1)N(C(=O)CCC(=O)NC1CCC(C)CC1)CCO2 (centres undefined)
16	COc1cc(/C=N/NC(=O)c2ccc3c(c2)OCCO3)cc(Br)c1O
8	O=C(Cn1cc2c(n1)CCCCC2)NCc1ccccn1
6	Cc1cc(OCC(=O)Nc2cc(-c3nn4c(C)nnc4s3)ccc2C)ccc1Cl
5	CSc1ccccc1NC(=O)c1cc(C2CC2)on1
0	O=C(COc1ccc2c(-c3ccccc3)cc(=O)oc2c1)NC1CCS(=O)(=O)C1 (centres undefined)
6	CC(NC(=S)NCCc1ccccc1)C(c1cccs1)N1CCN(C)CC1 (centres undefined)
2	CCCC(=O)NCCCc1nc2ccccc2[nH]1
0	CCC(NC(=O)CCc1c(C)c2cc3c(C)c(C)oc3cc2oc1=O)C(=O)N[C@@H](Cc1ccccc1)C(=O)O (some centres undefined)
8	COCc1cc(=O)n2c(-c3ccc(C)cc3)n[nH]c2n1
3	CCC(C)[C@H](NC(=O)N1CC(=O)Nc2ccccc21)C(=O)N[C@@H](Cc1c[nH]c2ccccc12)C(=O)O (some centres undefined)
5	CC1CCCCN1CCCNC(=O)c1ccc(N2CCCC2=O)cc1 (centres undefined)
0	CCC(C)NC(=O)Cn1cc2c(n1)CCC(C)C2 (centres undefined)
12	Brc1cnc(N2CCCC2)nc1N1CCCCC1
10	CC(=O)Oc1ccc([C@@H]2COc3c(ccc4c3C=CC(C)(C)O4)C2)c(OC(C)=O)c1
0	COC(=O)C1C2CC3c4[nH]c5cc(OC)ccc5c4CCN3CC2CC(O)C1OC (centres undefined)
0	O=C(CSc1nc2ccccc2nc1N1CCOCC1)Nc1ccccc1F
15	COc1cc(NC(=O)C2CCCN2S(=O)(=O)c2ccc3c(c2)CCC(=O)N3)cc(OC)c1 (centres undefined)
5	CCC(Sc1nc(=O)cc(N)n1CCc1ccccc1)C(=O)Nc1cc(C)on1 (centres undefined)
5	O=C1Nc2ccc(S(=O)(=O)N3CCCC3C(=O)O)c3cccc1c23 (centres undefined)
6	CCc1nc(SCC(=O)NCc2ccc(F)cc2)c2c(=O)n(C)c(=O)n(C)c2n1
7	CC1CN(C(=O)CCC(=O)NC(C)c2ccccc2)c2cc(Cl)ccc2O1 (centres undefined)
0	OC1CCC2CN3CCc4c([nH]c5ccccc45)C3CC2C1 (centres undefined)
11	CCOC(=O)CSc1nc2c(c(=O)n(C)c(=O)n2C)n1Cc1ccccc1F
9	Cc1ccc(N2CCN(C(=O)CCc3nc4ccccc4[nH]3)CC2)c(C)c1
11	COc1cccc(C2c3c(oc4ccccc4c3=O)C(=O)N2c2ccccn2)c1 (centres undefined)
5	c1ccc2ccccc2c1
5	COc1ccc(NC(=O)C2CCCN(c3nn4c(=O)cc(C)nc4s3)C2)cc1 (centres undefined)
-3	CCOC(=O)c1c(NC(=O)CSc2nnc(-c3c[nH]c4ccccc34)n2CCOC)sc2c1CCCC2
2	CCOC(=O)Cn1c(CN2CCc3ccccc3C2)nc2c1c(=O)n(C)c(=O)n2C
2	COc1ccc(CN2CCN(C(=O)Cn3ncn4cccc4c3=O)CC2)c(OC)c1OC
4	Cc1ccc(CN2CCc3[nH]c(=O)[nH]c(=O)c3C2)cc1
9	O=C(Cc1ccc(NC2=NC3CS(=O)(=O)CC3S2)cc1)NCc1ccccc1 (centres undefined)
5	COc1ccc(CCNS(=O)(=O)c2ccc3c(c2)oc(=O)n3C)cc1OC
-5	CCc1ccccc1NC(=O)[C@@H]1CCC(=O)N1C1OC(=O)c2c1ccc(OC)c2OC (some centres undefined)
5	CCOC(=O)N1CCN(S(=O)(=O)c2ccc(C(=O)NNc3nc4ccc(Cl)cc4s3)cc2)CC1
21	COc1ccc(C2CC(c3cccc(OC)c3)n3nc(N)nc3N2)cc1 (centres undefined)

# Later entries.
Hedgehog	smiles
2	O=C(CCN1C(=O)[C@@H]2Cc3ccccc3CN2C1=O)N[C@H](Cc1ccccc1)C(=O)O
19	CCOC(=O)N1CCN(C(c2ccc(Cl)cc2)c2sc3nc(C)nn3c2O)CC1 (centres undefined)
17	C=CCNc1oc(COc2ccc(C)cc2)nc1C#N
0	CCN(CCCNC(=O)CCC(=O)N1CCOc2ccccc21)Cc1ccccc1
3	CC1CCCCC1NC(=O)c1cccc(NC2=NC3CS(=O)(=O)CC3S2)c1 (centres undefined)
7	Cn1cc(SCC(=O)N2CCCc3ccccc32)c2ccccc21
5	COc1cccc(CNC(=O)Cn2ncn3cccc3c2=O)c1OC
15	O=C(CSc1nnc(COc2ccccc2)o1)Nc1nccs1
0	Cn1c(=O)c2c(SCc3ccccn3)nc(C3CC3)nc2n(C)c1=O
4	CC(C)(C)C1CCc2c(sc(NC(=O)c3cc(C4CC4)on3)c2C#N)C1 (centres undefined)
3	COc1ccc(CNC(=O)C2=CC(c3ccc(OC)cc3)=NS(=O)(=O)N2C)cc1
-4	O=C(CN1CCOc2ccccc21)NCc1ccccc1
12	C=C/C(C)=C/C[C@H]1C(=C)CCC2[C@](C)(C(=O)O)CCC[C@@]21C (some centres undefined)
-2	Cn1c(=O)c2c(SCC(=O)c3ccccc3)nc(C3CC3)nc2n(C)c1=O
15	CCCOc1ccc(C2c3c(oc4cc(C)c(C)cc4c3=O)C(=O)N2CCCN(C)C)cc1OCC (centres undefined)
7	O=c1c2nnn(-c3ccccc3)c2ncn1C/C=C/c1ccccc1
12	Clc1cc(Cl)c(Cl)cc1Cl
4	Oc1c(C(c2ccco2)N2CCOCC2)sc2ncnn12 (centres undefined)
2	Cc1ccc(Cn2nnc3c(=O)n(CC(=O)c4ccccc4)cnc32)cc1
5	c1ccc(-c2ccc3ccccc3n2)cc1

# Reprinted from the part before: 2 compounds, followed by the next part.
Hedgehog	smiles
2	Cc1ccc(Cn2nnc3c(=O)n(CC(=O)c4ccccc4)cnc32)cc1
5	c1ccc(-c2ccc3ccccc3n2)cc1
5	C[C@H](NC(=O)C1CCN(C(=O)[C@@H]2CCCN2C(=O)OC(C)(C)C)CC1)C(=O)NCc1ccc(F)cc1
10	COc1ccccc1CNC(=O)Cc1cc(=O)[nH]c(=O)[nH]1
15	Cc1ccc2oc(=O)c3cnn(CC(=O)Nc4cc(-c5cccc(F)c5)no4)c3c2c1
6	CC(=O)NNc1cc(N2CCOCC2)nc(N2CCOCC2)n1
7	CCCCCn1c(CN2CCCCC2CC)nc2c1c(=O)n(C)c(=O)n2C (centres undefined)
4	CCOc1ccccc1N(CC)C(=O)c1cc2c(s1)-c1ccccc1S(=O)(=O)C2
5	Cc1ccc(-c2nc(C(=O)NCCCN3CCOCC3)cc3c2[nH]c2ccccc23)cc1
5	O=C(O)Cc1c[nH]c2ccccc12
15	O=C(NCCn1cc(SCc2ccccc2)c2ccccc21)c1c(F)cccc1F
4	COc1ccc(NC(=O)Cn2nc(Cc3cccnc3)c3ccccc3c2=O)cc1OC
-2	COc1ccccc1[N+](=O)[O-]
4	COc1ccc(C)c(S(=O)(=O)Nc2ccc(OCC(=O)O)cc2)c1
7	CC1OC(OCC2OC(Oc3c(-c4ccc(O)cc4)oc4cc(O)cc(O)c4c3=O)C(O)C(O)C2O)C(O)C(O)C1O (centres undefined)
11	O=C(CSc1nnc(Cn2c(=O)sc3ccccc32)n1-c1ccccc1)NCc1ccco1
15	CCOC(=O)c1[nH]c2c(c1C)C(=O)CC(c1ccco1)C2 (centres undefined)
24	COc1ccc(-n2c(Cc3cccn3C)nnc2SCC(=O)Nc2cc(Cl)ccc2OC)cc1
7	O=C(Cc1cccc2ccccc12)OCn1nnc2ccccc2c1=O
19	CCc1ccc(S(=O)(=O)NCc2csc(-c3cccnc3)n2)s1
13	CCC(C)N1CC23C=CC(O2)C(C(=O)OC)C3C1=O (centres undefined)
5	CC1CN(C(=O)CCC(=O)N2CCCCC2)c2ccccc2O1 (centres undefined)
3	O=C(COc1ccc2c(c1)oc(=O)c1ccccc12)NCC1CCC(C(=O)O)CC1 (centres undefined)
-1	O=S(=O)(Nc1ccc(-c2nc3cccnc3s2)cc1)c1ccc(Cl)s1
2	NC(=O)C1(N2CCCCC2)CCN(C(=O)CCCn2c(=O)[nH]c3ccsc3c2=O)CC1
2	CCCCC(CC)COC(=O)C(C#N)=C(c1ccccc1)c1ccccc1 (centres undefined)
0	CC1CCN(C(=O)Cn2cc3c(n2)CCCC3)CC1
5	CCOc1cc(OCC)c(C(C)=O)cc1OCC
-3	CCCc1cc(=O)oc2c3c(cc(OCC(=O)N4CCC[C@H]4C(=O)O)c12)OC(C)(C)CC3
5	CCOc1ccc(CNC(=O)CCCC(=O)n2ncc3cc(C)ccc32)cc1
0	C=CCn1c(SCC(=O)Nc2cccc(OC)c2)nnc1-c1cccnc1
8	COc1ccccc1N1CCN(CC(=O)c2ccc3ccn(C(C)=O)c3c2)CC1
9	COc1ccc(OC)c(CCNC(=O)c2ccc(NC3=NC4CS(=O)(=O)CC4S3)cc2)c1 (centres undefined)
2	Cn1c(=O)c2c(nc(CN3CCN(CCO)CC3)n2CCc2ccccc2)n(C)c1=O
3	Cc1cc(NC(=O)CC(CN(C)S(=O)(=O)c2ccccc2)c2ccccc2)no1 (centres undefined)
4	Cc1ccc(C)c(N2CCN(C(=O)C3CCCN(S(=O)(=O)c4c(C)noc4C)C3)CC2)c1 (centres undefined)
17	Cc1ccc(-c2nn3c(C)nnc3s2)cc1NC(=O)c1ccc(OC(C)C)cc1
6	CCOC(=O)c1c(NC(=O)CSc2nnc(-c3c[nH]c4ccccc34)n2C)sc2c1CCCC2
17	Cc1ccc2c(c1)N(C(=O)CCC(=O)NCc1ccccc1)CC(C)O2 (centres undefined)
8	COc1ccc(-c2nc(CSCC(=O)N3CCc4ccccc4C3)c(C)o2)cc1OC
7	COc1ccc(-c2cc3c(=O)n(CC(=O)NCCCc4ccccc4)ncn3n2)cc1
8	Cc1c(Cl)cccc1NC(=O)C1NC(=O)CC1c1ccccc1 (centres undefined)
5	Cc1c(C)c2c(OCC(=O)NC3CC3)cc3c(c2oc1=O)CCC(C)(C)O3
8	Cc1cccc(CC(=O)NCCn2c(C)cc3ccccc32)c1
4	Cc1ccccc1NC(=O)C(=O)NCCc1c[nH]c2ccccc12
23	Cc1ccc(N2C(=O)c3oc4ccccc4c(=O)c3C2c2cccc(O)c2)nc1 (centres undefined)
17	CCOC(=O)CN1CC23C=CC(O2)C(C(=O)NCCc2ccccc2)C3C1=O (centres undefined)
21	Cc1nc(N2CCN(C)CC2)c2sc(=S)n(C)c2n1
10	COC12CC(=O)C(C(C)=O)=C(O)C1(C)c1c(O)c(C)c(O)c(C(C)=O)c1O2 (centres undefined)
7	O=C(NCc1ccc(Cl)cc1)c1cc2ccccn2n1
2	CCc1nc(SCc2ccc(C(=O)OC)o2)c2c(=O)n(C)c(=O)n(C)c2n1
4	Cc1cc2c(cc1S(=O)(=O)N1CCN(c3ccc(Cl)cc3)CC1)OCCN2C
7	Oc1c(C(c2ccco2)N2CCN(C(c3ccccc3)c3ccccc3)CC2)sc2ncnn12 (centres undefined)
15	COc1ccc(N(CC(=O)NC2CCCCC2)S(=O)(=O)c2cccnc2)cc1
0	COc1ccccc1NC(=O)c1ccc(NC2=NC3CS(=O)(=O)CC3S2)cc1 (centres undefined)

# As a short view, some entries already given.
Hedgehog	smiles
5	CCN1CCN(C(c2cccs2)C(C)NC(=O)c2cccc(OC)c2)CC1 (centres undefined)
8	CCCCNC(=O)CS(=O)Cc1nc(-c2ccc(C)cc2)oc1C (centres undefined)
11	CC(NS(=O)(=O)c1ccc(Br)cc1)C(c1cccs1)N1CCN(C)CC1 (centres undefined)
2	O=C(COc1ccc2c3c(c(=O)oc2c1)CCCC3)NC(Cc1ccc(Cl)cc1)C(=O)O (centres undefined)
5	Cc1ccc(N2CCN(S(=O)(=O)c3nnc(NC(=O)c4ccco4)s3)CC2)cc1
7	O=C(Cn1ncc2c1-c1ccccc1OC2)N1CCN(c2ccccn2)CC1
3	Cc1cccn2cc(CNS(=O)(=O)c3cccc(F)c3)nc12
-4	O=C(O)c1ccc(-n2nnnc2SCc2ccccc2F)cc1
6	COc1cc(C(c2sc3nc(C)nn3c2O)N2CC(C)OC(C)C2)cc(OC)c1OC (centres undefined)
5	Cc1c(C)c2ccc(OCC(=O)N3CCC(C(=O)O)CC3)c(C)c2oc1=O
0	Cc1ccccc1NC(=O)C1CCCN(c2nnc(N3CCCC3=O)s2)C1 (centres undefined)
5	COc1cccc2c(=O)n(CC(=O)N3CCCCCC3)ccc12
-3	CC1Cc2nc(SCC(=O)N3CCN(c4ccccc4)CC3)n(C)c(=O)c2S1 (centres undefined)
5	Cc1ccc2c(c1)N(C(=O)CCC(=O)NC1CCC(C)CC1)CCO2 (centres undefined)
16	COc1cc(/C=N/NC(=O)c2ccc3c(c2)OCCO3)cc(Br)c1O
8	O=C(Cn1cc2c(n1)CCCCC2)NCc1ccccn1
6	Cc1cc(OCC(=O)Nc2cc(-c3nn4c(C)nnc4s3)ccc2C)ccc1Cl
5	CSc1ccccc1NC(=O)c1cc(C2CC2)on1
0	O=C(COc1ccc2c(-c3ccccc3)cc(=O)oc2c1)NC1CCS(=O)(=O)C1 (centres undefined)
6	CC(NC(=S)NCCc1ccccc1)C(c1cccs1)N1CCN(C)CC1 (centres undefined)
2	CCCC(=O)NCCCc1nc2ccccc2[nH]1
